# Screening results as filed in PubChem BioAssay.
# p53 HeLa = nuclear p53 accumulation, HPV+ cells – imaging, p53-positive nuclei imaging, 24 h, 48 h (AID 1508601) | p53-positive nuclei imaging, 48 h; hits give high values; some inactives read as strong as hits | p53-positive nuclei, normalised, % at 11 µM unless noted | actives 1% (n = 5,700);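 active = mean of two plates above 50% at 24 h or at 48 h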;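 note: HPV-positive HeLa cells with a fluorescent p53 stability reporter; 0% = vehicle and 100% = proteasome inhibitor control; doses worked out from stocks diluted about 900-fold with the highest of each compound shown; many of its hits are not listed in these tables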
# p53 HeLa cells 24 h = further read-out of p53 HeLa, marked with its call; nuclei count, normalised, %; measured here: cell number at 24 h;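 100% = vehicle wells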
# p53 HeLa p53 24 h = recorded beside p53 HeLa, whose call it bears; p53-positive nuclei, normalised, %; measured here: p53 positive nuclei at 24 h;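 0% = vehicle and 100% = positive control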
# p53 HeLa cells 48 h = also measured in p53 HeLa; calls as there; nuclei count, normalised, %; measured here: cell number at 48 h;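 100% = vehicle wells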
# * = called active by the depositor; [ ] = dose if it differs, or a comment.
mol | p53 HeLa | p53 HeLa cells 24 h | p53 HeLa p53 24 h | p53 HeLa cells 48 h
CCOC(=O)Nc1ccc(NCc2ccc(F)cc2)cc1N | 0.0 | 110.3 | 0.0 | 105.2
COC1C(OC(=O)NC(=O)CCl)CC[C@]2(CO2)[C@@H]1[C@@]1(C)OC1CC=C(C)C (stereo partly drawn) | 0.1 | 77.5 | 0.3 | 74.8
CC1OC(O[C@H]2CC[C@@]3(C)[C@@H](CC[C@@H]4[C@H]3CC[C@]3(C)[C@@H](C5=CC(=O)OC5)CC[C@]43O)C2)CC(O)C1O (stereo partly drawn) | 14.0 | 42.7 | 1.0 | 29.0
O=C(NCCN1CCC2(CC1)C(=O)NCN2c1cccc(F)c1)c1ccc2ccccc2c1 | -0.1 | 96.5 | -0.1 | 104.3
O=C(O)CNC(=O)c1c(O)c2ccccc2n(Cc2ccccc2)c1=O | -0.6 | 115.0 | -0.1 | 117.0
O=c1c2ccccc2[se]n1-c1ccccc1 | 1.0 | 83.1 | 0.8 | 82.3
CC(C)C1C(=O)NC(CO)Cc2cc(NC(=O)C=CC=Cc3ccc(C(F)(F)F)cc3)ccc2N1C (stereo not drawn) | 18.1 | 97.4 | 8.6 | 98.9
O=S(=O)(CC1CS1)c1ccc(Oc2ccccc2)cc1 (stereo not drawn) | -0.2[3.7 µM] | 93.7 | -0.4 | 96.0
O=C(O)C(=O)CBr | -0.2 | 109.2 | -0.1 | 110.1
C1=C2CCCN[C@H]2[C@@H]2C[C@H]1[C@H]1CCCCN1C2 | -0.3[3.7 µM] | 110.8 | -0.3 | 105.7
CC=C(C)C(=O)NC(c1ccccc1)C(O)C(=O)OC1C[C@@]2(O)C(OC(=O)c3ccccc3)[C@@H]3[C@]4(OC(C)=O)COC4CC(O)[C@@]3(C)C(=O)C(OC(C)=O)C(=C1C)C2(C)C (stereo partly drawn) | 1.6[3.7 µM] | 33.5 | -0.1 | 28.1
S=C=NCCc1ccccc1 | 2.2 | 59.3 | 1.3 | 53.0

# Continuation.
mol | p53 HeLa | p53 HeLa cells 24 h | p53 HeLa p53 24 h | p53 HeLa cells 48 h
COc1ccc(C(=O)N2CCCC2=O)cc1 | -0.1[3.7 µM] | 107.5 | -0.2 | 104.9
c1ccc(CCNCc2ccccc2)cc1 | 0.1 | 106.9 | -0.2 | 105.8
CN1[C@@H]2CC(O)C[C@H]1[C@@H]1O[C@@H]12 (stereo partly drawn) | -0.2[3.7 µM] | 102.2 | -0.3 | 100.6
CC(N)Cc1c[nH]c2ccc(OCc3cccs3)cc12 (stereo not drawn) | -0.3 | 73.6 | -0.1 | 80.1
CCOC(=O)c1ccc(-c2ccc(OC(=O)N(C)Cc3cccc(-c4ccncc4)c3)cc2)cc1 | 0.2 | 108.0 | 0.0 | 104.8
CC(C)(C)[C@@]1(O)C[C@@H]2OC(=O)C[C@@]23C(=O)O[C@H]2OC(=O)C(O)C213 (stereo partly drawn) | 0.0[3.7 µM] | 110.0 | -0.1 | 105.0
Cc1ccc(-n2nccn2)c(C(=O)N2CCN(c3nc4cc(Cl)ccc4o3)CCC2C)c1 (stereo not drawn) | 0.1[3.7 µM] | 71.4 | -0.2 | 76.4
O=c1[nH]c2ccccc2n1CCCN1CCC(n2c(=O)[nH]c3cc(Cl)ccc32)CC1 | -0.1[3.7 µM] | 107.2 | -0.4 | 105.2
CCC1C=CC=CCC(C)C(O)[C@@](C)(O)C(=O)C(C)[C@@H](O)C(C)C(=O)C(C)C(O)C(C)C=CC(=O)OC2C(C)[C@]3(CCC(C)C(CC(C)O)O3)OC(CC1)[C@H]2C (stereo partly drawn) | -0.6[3.7 µM] | 109.1 | -0.3 | 108.2
CC(=Cc1csc(C)n1)C1CC2OC2CCCC(C)C(O)C(C)C(=O)C(C)(C)C(O)CC(=O)O1 (stereo not drawn) | -0.3[3.7 µM] | 38.8 | -0.1 | 32.5
O=C1C=CC[C@@H]2[C@@H]3CCCN4CCC[C@@H](CN12)[C@@H]34 | 0.0[3.7 µM] | 107.2 | 0.0 | 112.3
CC(C)(C)c1cc(C=C(C#N)C#N)cc(C(C)(C)C)c1O | 0.0[3.7 µM] | 75.1 | -0.5 | 64.6

# 14 consecutive entries from above, for reference:
mol | p53 HeLa | p53 HeLa cells 24 h | p53 HeLa p53 24 h | p53 HeLa cells 48 h
CC=C(C)C(=O)NC(c1ccccc1)C(O)C(=O)OC1C[C@@]2(O)C(OC(=O)c3ccccc3)[C@@H]3[C@]4(OC(C)=O)COC4CC(O)[C@@]3(C)C(=O)C(OC(C)=O)C(=C1C)C2(C)C (stereo partly drawn) | 1.6[3.7 µM] | 33.5 | -0.1 | 28.1
S=C=NCCc1ccccc1 | 2.2 | 59.3 | 1.3 | 53.0
COc1ccc(C(=O)N2CCCC2=O)cc1 | -0.1[3.7 µM] | 107.5 | -0.2 | 104.9
c1ccc(CCNCc2ccccc2)cc1 | 0.1 | 106.9 | -0.2 | 105.8
CN1[C@@H]2CC(O)C[C@H]1[C@@H]1O[C@@H]12 (stereo partly drawn) | -0.2[3.7 µM] | 102.2 | -0.3 | 100.6
CC(N)Cc1c[nH]c2ccc(OCc3cccs3)cc12 (stereo not drawn) | -0.3 | 73.6 | -0.1 | 80.1
CCOC(=O)c1ccc(-c2ccc(OC(=O)N(C)Cc3cccc(-c4ccncc4)c3)cc2)cc1 | 0.2 | 108.0 | 0.0 | 104.8
CC(C)(C)[C@@]1(O)C[C@@H]2OC(=O)C[C@@]23C(=O)O[C@H]2OC(=O)C(O)C213 (stereo partly drawn) | 0.0[3.7 µM] | 110.0 | -0.1 | 105.0
Cc1ccc(-n2nccn2)c(C(=O)N2CCN(c3nc4cc(Cl)ccc4o3)CCC2C)c1 (stereo not drawn) | 0.1[3.7 µM] | 71.4 | -0.2 | 76.4
O=c1[nH]c2ccccc2n1CCCN1CCC(n2c(=O)[nH]c3cc(Cl)ccc32)CC1 | -0.1[3.7 µM] | 107.2 | -0.4 | 105.2
CCC1C=CC=CCC(C)C(O)[C@@](C)(O)C(=O)C(C)[C@@H](O)C(C)C(=O)C(C)C(O)C(C)C=CC(=O)OC2C(C)[C@]3(CCC(C)C(CC(C)O)O3)OC(CC1)[C@H]2C (stereo partly drawn) | -0.6[3.7 µM] | 109.1 | -0.3 | 108.2
CC(=Cc1csc(C)n1)C1CC2OC2CCCC(C)C(O)C(C)C(=O)C(C)(C)C(O)CC(=O)O1 (stereo not drawn) | -0.3[3.7 µM] | 38.8 | -0.1 | 32.5
O=C1C=CC[C@@H]2[C@@H]3CCCN4CCC[C@@H](CN12)[C@@H]34 | 0.0[3.7 µM] | 107.2 | 0.0 | 112.3
CC(C)(C)c1cc(C=C(C#N)C#N)cc(C(C)(C)C)c1O | 0.0[3.7 µM] | 75.1 | -0.5 | 64.6

# Taken from the entries so far, two compounds:
mol | p53 HeLa | p53 HeLa cells 24 h | p53 HeLa p53 24 h | p53 HeLa cells 48 h
O=C1C=CC[C@@H]2[C@@H]3CCCN4CCC[C@@H](CN12)[C@@H]34 | 0.0[3.7 µM] | 107.2 | 0.0 | 112.3
CC(C)(C)c1cc(C=C(C#N)C#N)cc(C(C)(C)C)c1O | 0.0[3.7 µM] | 75.1 | -0.5 | 64.6

# Next section
mol | p53 HeLa | p53 HeLa cells 24 h | p53 HeLa p53 24 h | p53 HeLa cells 48 h
CC1CC[C@@]2(OC1)O[C@H]1C[C@H]3[C@@H]4CC=C5CC(O[C@@H]6OC(CO)C(O[C@@H]7OC(C)C(O)C(O)C7O)C(O)C6O[C@@H]6OC(C)C(O)C(O)C6O)CC[C@]5(C)[C@@H]4CC[C@]3(C)[C@@H]1C2C (stereo partly drawn) | 3.6[3.7 µM] | 55.0 | 3.7 | 55.3
Clc1ccccc1C(c1ccccc1)(c1ccccc1)n1cccn1 | -0.1 | 111.4 | 0.0 | 104.0
COP(=O)(CCC(N)C(=O)O)Oc1cccc(CC(=O)O)c1 (stereo not drawn) | 0.1 | 104.9 | 0.0 | 106.3
OC1CN2CCC(O)C2C(O)C1O (stereo not drawn) | 0.1 | 100.3 | 0.0 | 103.4
c1ccc(C2CC2NC2CCNCC2)cc1 (stereo not drawn) | 0.2 | 105.3 | 0.1 | 91.7
CC(=O)NC1C(OC2OC(CC(O)C3OC(n4ccc(=O)[nH]c4=O)C(O)C3O)C(O)C(O)C2NC(=O)C=CCCCCCCCCCCC(C)C)OC(CO)C(O)C1O (stereo not drawn) | 0.6 | 55.7 | -0.2 | 36.7
CN1CCCCC1Cn1cc(C(=O)c2cc([N+](=O)[O-])ccc2I)c2ccccc21 (stereo not drawn) | -0.3[3.7 µM] | 66.9 | -0.5 | 71.3
NCCc1ccccc1Br | 0.0 | 98.5 | 0.0 | 98.1
CNCC(O)c1ccc(O)cc1 (stereo not drawn) | -0.2[3.7 µM] | 96.9 | -0.4 | 101.6
CCCCCCCCCCCC[N+](C)(C)CCOc1ccccc1 | -0.2[3.7 µM] | 115.0 | -0.3 | 109.5
NCCc1c(Cl)cccc1Cl | 0.0 | 113.7 | -0.2 | 108.0
Cc1[nH]cnc1CCN | -0.2 | 106.0 | -0.2 | 101.4

# A portion of the library. The share of hits here may be higher or lower than overall.
